From PubChem
HCMV NEC inh = inhibitors of HCMV UL50-UL53 interaction, biochemical, HTRF. HCMV UL50-UL53 nuclear egress complex (human cytomegalovirus). normalized percent inhibition. inhibition, % (no concentration beside the values). hit rate 0.15% among 190,000;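 active = both replicates at 50% or more, plus weaker picks with an unusually low signal ratio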;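 note: stock transfer was 100 nL into about 20 µL; 0% = negative control wells and 100% = wells with untagged competitor protein; inactives centre near -12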
Sa growth 42C = S. aureus growth inhibition at 42 and 30 °C, primary screen, LtaS inhibitor project, RN4220, two temperatures. OD600, 20 h, 42 °C; stronger effect = lower value. relative growth, % (concentration not given with the values). hit rate 0.53% among 170,000;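 active = growth at 42 °C up to 50% and 20 or more points under that at 30 °C, or under 10% at both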;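 note: 300 nL library stock went into each well; scaled to the means of positive and negative controls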
GIV Gai3 FP = inhibitors of GIV peptide binding to Galpha-i3, primary screen, biochemical, fluorescence polarization, FITC-GIV GBA peptide, rat Galphai3; 90 min; stronger effect = lower value; scaled: aluminum fluoride 0%, vehicle 100%; Guanine nucleotide-binding protein G(i) subunit alpha-3 (Rattus norvegicus), P08753; hit rate 0.42% among 210,000; percent of control (FP), % (concentration not given with the values);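 active = replicate mean at 85% of control or lower, very high polarization wells dropped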;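 note: wells of about 15 µL received 100 nL stock; the first replicate is given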
Target sequence (P08753 whole entry, looked up): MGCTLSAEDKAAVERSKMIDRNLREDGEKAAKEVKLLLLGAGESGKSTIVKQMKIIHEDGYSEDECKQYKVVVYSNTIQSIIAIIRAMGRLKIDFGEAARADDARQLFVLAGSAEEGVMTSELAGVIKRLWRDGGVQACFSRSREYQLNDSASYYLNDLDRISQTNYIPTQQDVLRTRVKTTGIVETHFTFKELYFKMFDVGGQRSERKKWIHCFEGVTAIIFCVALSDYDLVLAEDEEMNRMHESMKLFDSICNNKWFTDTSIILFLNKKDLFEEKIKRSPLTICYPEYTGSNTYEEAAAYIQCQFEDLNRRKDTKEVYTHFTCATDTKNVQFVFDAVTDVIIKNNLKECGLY
Sa growth 42C second temp = also measured in Sa growth 42C; calls as there; relative growth, %; measured here: growth at 30 °C;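 optical density after 20 h as mean of two plates; 100% = untreated growth and lower means inhibition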
Numbers without * were called inactive; / = no result given; & = joins results of further samples. Random draw from the library (roughly 0.83% active in at least one column).

SMILES | HCMV NEC inh | Sa growth 42C | Sa growth 42C second temp | GIV Gai3 FP
CC(C)Cc1ccc(S(=O)(=O)Nc2ccc3[nH]c(=O)[nH]c3c2)cc1 | 3 | 103 | 90 | 101
Nc1ccc(S(=O)C(F)(F)F)cc1 (stereo not given) | -4 | 126 | 93 | /
CN(Cc1ccc(Cl)s1)C(=O)CSc1nnc2n1CCCCC2 | -17 | 84 | 98 | /
COc1ccc(C(=O)NCC(c2ccc3c(c2)CCCN3C)N2CCCC2)cc1 (stereo not given) | -16 | / | / | 103
CCc1ccc(C(c2c(C)[nH][nH]c2=O)C(C#N)C#N)cc1 (stereo not given) | -3 | 103 | 59 | 103
O=C(O)c1cc(N2CCN(c3ccccc3Cl)CC2)ccc1NC(=O)C1CC1 | -24 | / | / | 99
CCOC(=O)c1c(-c2ccccc2Cl)csc1NC(=O)CC | -3 | 102 | 89 | /
CCCOc1ccc(C2C(=O)N(C3CCC(C)CC3)CC(=O)N2CCc2ccccc2)cc1OC (stereo not given) | / | 114 | 96 | 102
c1ccc2c(CN3CCCNCC3)cccc2c1 | / | 106 | 90 | 100
Cc1cccc(NC(=O)c2cc(S(=O)(=O)N3CCC4(CC3)OCCO4)ccc2F)c1 | / | 121 | 81 | 107
CCOC(=O)c1c(NC(=O)c2ccc(Cl)cc2)sc(C(=O)Nc2ccccc2C(F)(F)F)c1C | -15 | / | / | 106
Cc1ccc2oc(=O)c3cnn(CC(=O)Nc4ccccc4N4CCN(C)CC4)c3c2c1 | -15 | 96 | 85 | 104
O=C(COCc1nnc(C(=O)Nc2cccc(F)c2)s1)NCCc1c[nH]c2ccccc12 | -43 | / | / | 103
CCc1c(O)nc(SCCN(CC)CC)n(-c2ccccc2)c1=O | -17 | 95 | 83 | 95
N#Cc1c(Nc2ccccc2)c(/C=N/N)c[nH]c1=O | -37 | 98 | 80 | 104
Cc1cccc(NC(=O)c2cnn3c(C)cc(C)nc23)c1 | -7 | / | / | 100
Cc1nc2c(c(-c3ccccc3)c1C#N)C(=O)c1ccccc1-2 | / | 107 | 85 | 100
Clc1ccc(OCc2nc(-c3ccc(-n4cccc4)cc3)no2)cc1 | 2 | 103 | 102 | 105
CC(=O)Nc1c(C(=O)Nc2cccc(C)c2)nnn1-c1ccc(C)cc1 | 11&20 | 100 | 93 | 105&105
COc1cc(OC)c(NC(=O)NCC(c2cccnc2)c2c[nH]c3ccccc23)cc1Cl (stereo not given) | -27 | / | / | 98
Cc1c(C(=O)O)nnn1-c1ccccc1Oc1ccc(Cl)cc1Cl | -9 | 104 | 94 | 95
CCn1c(SCC(=O)Nc2ccc3c(c2)OCO3)nc2ccc(Br)cc2c1=O | -3 | 108 | 99 | /
CC(C)OC(=O)CSc1nnc(-c2cnccn2)n1-c1ccccc1 | -15 | 111 | 94 | 104
CN(C)c1ccc(NC(=O)CSc2nc(-c3ccco3)cc(C(F)(F)F)n2)cc1 | -29 | 85 | 85 | 96
COc1cccc(NC(=O)Cn2ncc3c4ccccc4n(Cc4ccc(C)cc4)c3c2=O)c1 | -28 | / | / | 105

Arranged by formula weight (largest number first): some entries from above.
SMILES | HCMV NEC inh | Sa growth 42C | Sa growth 42C second temp | GIV Gai3 FP
CCOC(=O)c1c(NC(=O)c2ccc(Cl)cc2)sc(C(=O)Nc2ccccc2C(F)(F)F)c1C | -15 | / | / | 106
COc1cccc(NC(=O)Cn2ncc3c4ccccc4n(Cc4ccc(C)cc4)c3c2=O)c1 | -28 | / | / | 105
Cc1ccc2oc(=O)c3cnn(CC(=O)Nc4ccccc4N4CCN(C)CC4)c3c2c1 | -15 | 96 | 85 | 104
CN(C)c1ccc(NC(=O)CSc2nc(-c3ccco3)cc(C(F)(F)F)n2)cc1 | -29 | 85 | 85 | 96
O=C(O)c1cc(N2CCN(c3ccccc3Cl)CC2)ccc1NC(=O)C1CC1 | -24 | / | / | 99
CN(Cc1ccc(Cl)s1)C(=O)CSc1nnc2n1CCCCC2 | -17 | 84 | 98 | /
CC(C)OC(=O)CSc1nnc(-c2cnccn2)n1-c1ccccc1 | -15 | 111 | 94 | 104
CC(=O)Nc1c(C(=O)Nc2cccc(C)c2)nnn1-c1ccc(C)cc1 | 11&20 | 100 | 93 | 105&105
CCc1c(O)nc(SCCN(CC)CC)n(-c2ccccc2)c1=O | -17 | 95 | 83 | 95
Cc1nc2c(c(-c3ccccc3)c1C#N)C(=O)c1ccccc1-2 | / | 107 | 85 | 100
N#Cc1c(Nc2ccccc2)c(/C=N/N)c[nH]c1=O | -37 | 98 | 80 | 104
c1ccc2c(CN3CCCNCC3)cccc2c1 | / | 106 | 90 | 100
Nc1ccc(S(=O)C(F)(F)F)cc1 (stereo not given) | -4 | 126 | 93 | /

(listing goes on)
SMILES | HCMV NEC inh | Sa growth 42C | Sa growth 42C second temp | GIV Gai3 FP
O=C1/C(=C/c2ccc3c(c2)OCO3)COc2ccccc21 | -27 | 73 | 85 | /
COc1cccc(C(=O)Nc2cccc(C)n2)c1 | -10 | 86 | 85 | /
C=CCSc1nc2ccccc2c2nc(C)nn12 | -7 | / | / | 111
Nc1n[nH]c(Cc2ccccc2)c1-c1ccccc1 | 1 | 129 | 57 | 97
CCc1ccc(CNC(=O)Cn2nc(C)c3c(C)n(-c4ccc(C)cc4)nc3c2=O)cc1 | / | 85 | 86 | 94
COC(=O)COC(=O)Cc1c(C)n(C(=O)c2ccc(Cl)cc2)c2ccc(OC)cc12 | -28 | 103 | 90 | 101
O=C1c2ccccc2S(=O)(=O)N1Cc1ccc(-c2csnn2)cc1 | 32 | 98 | 87 | 102
N#CC(C(=O)c1cc(F)c(F)cc1Cl)c1ccccn1 (stereo not given) | -7 | 111 | 89 | /
COC(=O)c1ccc2c(c1)N=C(C)c1cc(C)ccc1S2 | / | 90 | 96 | 106
Fc1ccc(C(c2nnnn2C2CCCC2)N2CCc3ccccc32)cc1 (stereo not given) | 5 | 103 | 80 | 102
CCOC(=O)/C(C#N)=c1/s/c(=C2\C=Cc3ccccc3N2CC)c(=O)n1CC | 0 | 107 | 93 | /
COc1ccc(-c2cc(C(F)(F)F)nc(SCC(=O)NCCc3ccccc3)n2)cc1 | 2 | 112 | 104 | 111
CN(C(=O)CSc1nc2ccccc2c(=O)n1Cc1ccccc1)c1ccccc1 | -4 | 111 | 82 | 96
O=C(O)c1cc(NC(=O)C2CC2)cc(NC(=O)C2CC2)c1 | -4 | 85 | 99 | 102
Cc1ccc(-c2nc3c(c(SCC(=O)N(C)c4ccccc4)n2)Cc2c(CO)cnc(C)c2O3)cc1 | / | 94 | 81 | 101
O=C(O)COc1cc(Cl)ccc1O | -19 | 89 | 87 | /
CCCCCn1c(NCc2ccc(OC)cc2)nc2ccccc21 | 8 | 78 | 84 | 106
O=C(COC(=O)c1ccc(N2C(=O)c3ccccc3C2=O)cc1)Nc1ccc(N2CCOCC2)cc1 | -40 | 90 | 87 | /
COc1ccc(CCC(=O)Nc2ccc(-c3noc(-c4ccccc4Br)n3)cc2)cc1 | -4 | 108 | 100 | 107
Cc1ccc(S(=O)(=O)N(c2ccccc2)C2CC(C)Nc3ccccc32)cc1 (stereo not given) | / | 108 | 104 | 102
COCCn1c(CNC(=O)c2cc([N+](=O)[O-])ccc2Cl)nc2cccnc21 | / | 109 | 79 | 110
COc1ccc(N2CCN(CCNC(=O)c3cc(-c4ccccn4)nc4ccccc34)CC2)cc1 | -34 | 108 | 90 | 103
O=C(NCc1ccccc1)NC1(C(F)(F)F)Oc2ccccc2O1 | / | 117 | 87 | 97
Cc1ccc(S(=O)(=O)Nc2cccc3c(O)cccc23)cc1 | -22 | 121 | 83 | /
COc1cc([N+](=O)[O-])ccc1-c1ccc(/C=C2\C(=O)NC(=S)N(c3ccccc3)C2=O)o1 | -26 | / | / | 108

(continued)
SMILES | HCMV NEC inh | Sa growth 42C | Sa growth 42C second temp | GIV Gai3 FP
CCCCNC(=O)CN1C(=O)C(C)CSc2ccc(S(=O)(=O)N3CCCC3)cc21 (stereo not given) | -9 | / | / | 98
O=C(c1ccccc1)N(Cc1nc(-c2ccccc2)no1)C1CCCCC1 | -20 | 91 | 97 | 97
COC(=O)C1C(=O)C2=C(CC1C)NC(=O)CC2c1ccccc1 (stereo not given) | 4 | 104 | 92 | 100
NN/C(=N/S(=O)(=O)c1ccccc1)N1CCCC1 | 12 | 106 | 94 | 101
O=C1NC(=O)N(c2ccccc2)C(=O)/C1=C\c1ccc(C(=O)O)cc1 | / | 72 | 77 | 97
O=S(=O)(Nc1cccc2ccccc12)c1cccc2nonc12 | -61 | 121 | 88 | 93
Cc1ccc(N2CCN(C(=O)CN(c3ccc(C)cc3)S(=O)(=O)c3c(C)n[nH]c3C)CC2C)cc1 (stereo not given) | / | 70 | 57 | 104
C=CCc1ccccc1OCC(CN1CCCCC1)OC(C)=O (stereo not given) | -11 | 100 | 93 | 104
Cc1cc(OCC(=O)Oc2c(C)cc(Br)cc2Cl)no1 | -14 | 105 | 104 | /
O=C(NCc1csc(-c2cccs2)n1)c1cc(F)cc2c1OCOC2 | -13 | 118 | 96 | 106
CCS(=O)(=O)N1CCC2(CC1)OC(=O)C(C)=C2C(=O)NCc1ccccc1C | / | 81 | 85 | 99
COc1ccc(-c2nc(Cn3c(SCc4cccc(Cl)c4)nc4ccncc43)c(C)o2)cc1 | 16 | 94 | 90 | 103
CN(CCc1noc(C2CCCCC2)n1)S(=O)(=O)c1cccc2nsnc12 | -80 | / | / | 106
Cc1[nH]c2ccccc2c1C1(O)C(=O)N(Cc2ccccc2Cl)c2ccccc21 (stereo not given) | 4 | 118 | 77 | 106
O=C(c1ccco1)c1cc2cc(Br)ccc2oc1=O | -90 | 109 | 97 | 106
CCCCn1cnc2c(cnn2-c2ccc(Cl)cc2)c1=O | 0 | 91 | 81 | 104
O=C(Nc1ccc(-c2nc3ccc(NC(=O)C4CC4)cc3[nH]2)cc1)C1CC1 | 8 | 114 | 64 | 103
NC(=O)COc1ccc(-c2noc(COc3cccc(Cl)c3)n2)cc1 | 8 | 105 | 96 | 106
Cc1ccc(C(=O)OC[C@H]2O[C@H](c3nnc4ncccn34)C[C@@H]2OC(=O)c2ccc(C)cc2)cc1 | 15 | 95 | 97 | 103
CC1Cc2cc(S(=O)(=O)N(C)c3ccc(Br)cc3)ccc2N1C(=O)C1CC1 (stereo not given) | / | 120 | 110 | 111
Cc1cccc(NC(=O)CSc2nc(-c3ccccc3)cn2-c2ccccc2)c1C | / | 105 | 88 | 103
Cc1ccc2nc(C(=O)O)cc(Nc3ccc(N(C)C)cc3)c2c1 | -62 | / | / | 99
Cc1ccc(NCc2nc3nc4c(c(=O)n3[nH]2)CCC4)c(C)c1 | -25 | / | / | 106
C=CCn1c(=O)n(CCOC)c(=O)c2sc3ccccc3c21 | -14 | 98 | 88 | 107
CSc1nnc(-c2ccccc2O)n1-c1ccccc1 | -12 | 126 | 88 | 106

(list continues)
SMILES | HCMV NEC inh | Sa growth 42C | Sa growth 42C second temp | GIV Gai3 FP
O=C(CSc1nc2c([nH]c3ccccc32)c(=O)n1-c1ccccc1)N1CCCCC1 | / | 117 | 85 | 97
Cc1cc(N2CCN(c3ccccc3)CC2)n2ncc(-c3ccc(F)cc3)c2n1 | 23 | / | / | 99
COc1ccc(OC)c(C2C(C(=O)OC(C)C)=C(C)NC3=C2C(=O)CC(c2ccc(OC)c(OC)c2)C3)c1 (stereo not given) | -15 | / | / | 99
COC(=O)C(CC(C)C)NC(=O)c1ccccc1Cl (stereo not given) | -12 | 91 | 94 | /
COc1cccc(/C=C2/SC(=Nc3ccccc3)N(CCc3ccccc3)C2=O)c1O | / | 102 | 93 | 96
COc1ccc(NC(=O)c2cc3c(=O)n(Cc4ccco4)ccc3nc2C)cc1 | / | 88 | 91 | 96
C=CCN1C(=O)/C(=C\c2ccccc2Cl)N=C1c1ccccc1 | -30 | 92 | 88 | 103
Cc1noc2c1C(c1ccc(O)cc1)C1=C(CC(c3ccccc3O)CC1=O)N2 (stereo not given) | -8 | / | / | 100
CN(C)c1ccc(-c2noc(-c3cccc(Br)c3)n2)cc1 | -11 | / | / | 106
CCn1nc(-c2ccccc2)cc1-n1cnc2ccccc21 | -27 | 103 | 60 | /
CNC(=O)C1CCN(c2ccc(Cl)cc2)C1=O (stereo not given) | -29 | / | / | 102
CN1C=C(C(N)=O)C=C/C1=C(/C#N)c1nc2ccccc2s1 | -98 | 107 | 90 | 91
Cc1noc(C)c1C(=O)NCC(c1ccccc1)c1c[nH]c2ccccc12 (stereo not given) | -5 | 98 | 97 | 99
CCN(CC)S(=O)(=O)c1ccc(C(=O)NCCn2c(C)cc3ccccc32)cc1 | -23 | 96 | 84 | 106
Cc1cc(NNC(=S)S)nc(N)n1 | 7 | 89 | 64 | 99
CCOc1ccc(NC(=O)c2cnn3c2NC(c2ccccc2)=CC3c2cccc(OC)c2OC)cc1 (stereo not given) | / | 108 | 106 | 103
CN(C)/C=N/NS(=O)(=O)c1ccccc1 | -10 | 98 | 95 | 107
COc1cccc(C(=O)Nc2nnc(S(=O)(=O)N3CCOCC3)s2)c1 | 2 | 103 | 74 | 104
C1CCN2CC3CC(CN4CCCC[C@@H]34)C2C1 (stereo not given in full) | -7 | 106 | 94 | 100
COCc1nnc(NC(=O)/C=C/c2ccc(OC)cc2)s1 | 4 | 113 | 85 | 98
CC(C)C(=O)N1c2nc(C(C)C)nn2C2(CCCCC2)[C@@H]2CCCC[C@@H]21 | -2 | 101 | 92 | 95
